# Myc binder – binders of human c-Myc. 17,000 compounds, 1.5% hits. calls only. small molecule microarray, His-c-Myc binding, anti-His fluorescence. P01106;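 active means spot fluorescence over background with P-value below 7% in all four replicate spots, showing protein binding; compounds were printed on slides so no solution concentration is given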;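 further: score is binary with 100 for all four spots passing and 0 otherwise; about 2 pmol printed per array spot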
# mut p53 SMM – binders of human mutant p53 | small molecule microarray binding, anti-GST fluorescence | calls only | 17,000 compounds, 0.4% hits;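 active means compounds whose four printed spots each glow above background more than chance allows, each with a p-value under 7%; compounds were printed on slides so no solution concentration is given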;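 further: about 2 pmol printed per array spot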
# ID4 binder – binders of human ID4 protein | small molecule microarray, Flag-ID4 binding, fluorescence F/B | calls only | 31,000 compounds, 1.2% hits;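 active means spot signal over background at p below 0.07 in all four prints; compounds were printed on slides so no solution concentration is given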;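 further: a binder raises fluorescence above local background on the spot; about 2 pmol printed per array spot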
# Target sequence (P47928 whole entry, looked up): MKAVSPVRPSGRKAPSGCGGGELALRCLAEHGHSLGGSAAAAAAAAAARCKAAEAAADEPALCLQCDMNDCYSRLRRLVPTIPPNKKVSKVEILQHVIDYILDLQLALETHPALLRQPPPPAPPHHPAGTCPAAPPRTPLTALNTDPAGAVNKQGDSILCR
# STAT3 SMM – STAT3 (human) binding | calls only | Small molecule microarray, His-STAT3 binding, anti-His fluorescence | AID 624138 | 17,000 compounds, 0.2% hits;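 active means compounds whose four printed spots each show fluorescence over background unusually high for their array block, chance value under 7%; compounds were printed on slides so no solution concentration is given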;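 further: about 2 pmol printed per array spot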
# Target sequence (P40763 whole entry, looked up): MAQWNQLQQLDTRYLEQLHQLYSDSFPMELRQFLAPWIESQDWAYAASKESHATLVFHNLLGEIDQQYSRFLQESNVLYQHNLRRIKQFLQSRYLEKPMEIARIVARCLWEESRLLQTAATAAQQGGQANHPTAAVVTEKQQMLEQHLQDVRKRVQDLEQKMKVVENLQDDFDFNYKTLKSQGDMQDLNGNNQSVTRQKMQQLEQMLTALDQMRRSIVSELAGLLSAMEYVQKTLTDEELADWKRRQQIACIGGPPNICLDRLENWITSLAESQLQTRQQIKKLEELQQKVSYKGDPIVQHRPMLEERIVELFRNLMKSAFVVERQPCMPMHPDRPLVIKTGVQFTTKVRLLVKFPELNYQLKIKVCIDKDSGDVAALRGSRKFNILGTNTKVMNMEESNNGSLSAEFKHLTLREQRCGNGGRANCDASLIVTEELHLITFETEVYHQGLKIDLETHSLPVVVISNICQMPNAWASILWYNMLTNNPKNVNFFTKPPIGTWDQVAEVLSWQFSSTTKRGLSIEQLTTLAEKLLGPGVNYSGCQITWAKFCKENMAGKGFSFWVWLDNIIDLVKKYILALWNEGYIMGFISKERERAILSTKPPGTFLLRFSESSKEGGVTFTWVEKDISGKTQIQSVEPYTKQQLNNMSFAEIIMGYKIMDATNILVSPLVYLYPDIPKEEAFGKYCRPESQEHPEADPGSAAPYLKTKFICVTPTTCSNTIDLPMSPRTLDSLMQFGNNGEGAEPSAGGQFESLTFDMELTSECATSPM
# Calls only; i = inactive; . = no result given. Random draw from the library. About 3.7% of those tested had a hit in this group.
# Values run as follows: Myc binder, mut p53 SMM, ID4 binder, STAT3 SMM
C[C@@H]1CN([C@H](C)CO)C(=O)Cc2cc(NC(=O)Nc3ccc4c(c3)OCO4)ccc2O[C@@H]1CN(C)C(=O)Nc1ccc2c(c1)OCO2
 : i, i, i, i
NC(=O)NCC#Cc1ccc2c(c1)[C@]1(C(=O)N2)[C@H](c2ccccc2OCCO)N2[C@H](c3ccccc3)[C@H](c3ccccc3)OC(=O)[C@H]2[C@@H]1C(N)=O
 : i, i, i, i
Cc1c(CO)c2ccccc2n1Cc1ccccc1C#N
 : i, i, i, i
C[C@H]1CN([C@@H](C)CO)C(=O)c2cccc(NC(=O)c3ccncc3)c2O[C@@H]1CN(C)Cc1ccc(C(=O)O)cc1
 : i, i, i, i
C[C@@H]1CN([C@@H](C)CO)C(=O)c2cc(NC(=O)Nc3ccc(F)cc3)ccc2O[C@@H](C)CCCCO[C@H]1CN(C)C(=O)Nc1cccc2ccccc12
 : i, i, ., i
C[C@H](CO)N1C[C@H](C)[C@H](CN(C)Cc2ccncc2)Oc2ccc(N(C)C)cc2C1=O
 : i, i, i, i
COc1ccc(OC)c(-c2cc(C(=O)NC(C)c3ccc(OC)c(OC)c3)c3ccccc3n2)c1 (configuration not stated)
 : i, i, i, i
COc1ccc(S(=O)(=O)N(C)C[C@@H]2Oc3c(NC(=O)c4ccncc4)cccc3C(=O)N([C@@H](C)CO)C[C@@H]2C)cc1
 : i, i, i, i
C[C@H](CO)N1C[C@H](C)[C@@H](CN(C)C)Oc2c(NC(=O)Nc3ccc(C(F)(F)F)cc3)cccc2C1=O
 : i, i, i, i
C[C@H](CO)N1C[C@H](C)[C@@H](CN(C)Cc2ccc3cccnc3c2)OCc2cn(nn2)CCCC1=O
 : i, i, i, i
COc1ccccc1NC(=O)C(Cc1ccccc1)N1C(=O)C2C3c4ccccc4C(c4ccccc43)C2C1=O (configuration not stated)
 : i, i, i, i
CN1CCN(C(=O)C2=C[C@@H](c3ccc4c(c3)OCO4)C[C@@H](OCc3ccc(CO)cc3)O2)CC1
 : i, i, i, i
C[C@H](CO)N1C[C@H](C)[C@@H](CN(C)Cc2ccncc2)Oc2ccc(NC(=O)C3CC3)cc2C1=O
 : i, i, i, i
C[C@H](CO)N1C[C@H](C)[C@H](CN(C)C(=O)NC2CCCCC2)Oc2ccc(NS(=O)(=O)c3ccccc3)cc2CC1=O
 : i, i, i, i
C[C@@H]1CCCCO[C@@H](CN(C)C(=O)C2CCCCC2)[C@H](C)CN([C@H](C)CO)C(=O)c2cc(NC(=O)Nc3ccccc3)ccc2O1
 : i, i, i, i
C[C@@H]1CCCCO[C@@H](CN(C)C(=O)NC2CCCCC2)[C@@H](C)CN([C@H](C)CO)C(=O)c2cc(NC(=O)NC3CCCCC3)ccc2O1
 : i, i, ., i
COc1cc(NC(=O)CSc2ccccc2)c(C(=O)O)cc1OC
 : i, i, i, i
CO[C@H]1O[C@H](CO)[C@@H](OC(=O)Nc2ccc3c(c2)OCO3)[C@H](OC(=O)Nc2ccccc2)[C@@H]1OC(=O)Nc1ccccc1
 : i, i, i, i
C[C@@H]1CN([C@H](C)CO)C(=O)c2cccc(NC(=O)Nc3ccc(C(F)(F)F)cc3)c2O[C@H]1CN(C)S(=O)(=O)c1cn(C)cn1
 : i, i, i, i
COc1ccc(NC(=O)N(C)C[C@@H]2Oc3c(NC(=O)c4cc(C)nn4C)cccc3C(=O)N([C@H](C)CO)C[C@@H]2C)cc1
 : i, i, ., i
COc1ccc(S(=O)(=O)Nc2cccc3c2O[C@H](CN(C)Cc2ccc(C(=O)O)cc2)[C@@H](C)CN([C@@H](C)CO)C3=O)cc1
 : i, i, i, i
NC(=O)CSc1nc2ccccc2n1CC(=O)N1CCCCC1
 : i, i, i, i
CS(=O)(=O)N(CC(=O)Nc1c(F)cccc1F)c1ccccc1
 : i, i, i, i
COC(=O)c1ccc(Cl)c(NC(=O)CSc2nc(-c3ccccc3)cc(C(F)(F)F)n2)c1
 : i, i, i, i
C[C@H](CO)N1C[C@H](C)[C@H](CN(C)CC2CC2)Oc2c(NC(=O)c3cnccn3)cccc2C1=O
 : i, i, i, i
COc1ccc(CN(C)C[C@@H]2Oc3ccc(NC(=O)Nc4ccc(OC)cc4)cc3CC(=O)N([C@H](C)CO)C[C@@H]2C)cc1
 : i, i, i, i
COCCNS(=O)(=O)c1cc(OC)c(C)cc1C
 : i, i, i, i
COc1ccccc1NC(=O)NCCc1ccncc1
 : i, i, i, i
COCC1=C([C@H](O)CCc2ccccc2)[C@H](CO)[C@@H]2C(=O)N(Cc3ccccc3)C(=O)[C@@H]2C1
 : i, i, ., i
Cn1nc(-c2ccc(NCc3cccnc3)c([N+](=O)[O-])c2)c2ccccc2c1=O
 : i, i, i, i
C[C@H]1CN([C@@H](C)CO)C(=O)c2cc(NC(=O)Nc3ccc(F)cc3)ccc2O[C@H]1CN(C)S(=O)(=O)c1cccs1
 : i, i, i, i
C[C@@H]1CN([C@H](C)CO)C(=O)Cc2cc(NC(=O)Nc3ccc(F)cc3)ccc2O[C@H]1CN(C)S(C)(=O)=O
 : i, i, ., i
CCCc1ccc(-c2cc(C(=O)NCc3ccccn3)c3ccccc3n2)cc1
 : i, i, i, i
C=CCNC(=O)[C@@H]1[C@H]2C(=O)O[C@H](c3ccccc3)[C@H](c3ccccc3)N2[C@H](c2ccc(O)cc2)[C@@]12C(=O)N(C(=O)OCCOC)c1ccc(C#Cc3ccc(OC)cc3)cc12
 : i, i, ., i
C[C@H](CO)N1C[C@H](C)[C@H](CN(C)C(=O)Nc2cccc3ccccc23)Oc2ccc(NS(=O)(=O)c3cn(C)cn3)cc2CC1=O
 : i, i, i, i
C[C@H]1CN([C@@H](C)CO)C(=O)Cc2cc(NS(C)(=O)=O)ccc2O[C@@H]1CN(C)C(=O)NC1CCCCC1
 : i, i, i, i
Cc1noc(C)c1NC(=O)N(C)C[C@@H]1Oc2c(NC(=O)c3nc4ccccc4s3)cccc2C(=O)N([C@H](C)CO)C[C@H]1C
 : i, i, i, i
Cc1ccc2nc(N3CCNCC3)c(-n3nc(C)cc3C)nc2c1
 : i, i, i, i
COc1ccc(S(=O)(=O)Nc2cccc3c2O[C@H](CN(C)Cc2ccc4c(c2)OCO4)[C@H](C)CN([C@@H](C)CO)C3=O)cc1
 : i, i, i, i
C[C@@H]1CCCCO[C@H](CN(C)C(=O)c2ccccc2)[C@H](C)CN([C@@H](C)CO)C(=O)c2cc(NS(=O)(=O)c3ccccc3)ccc2O1
 : i, i, i, i
COc1ccc(CN(C)C[C@H]2Oc3ccc(NC(=O)Nc4ccc5c(c4)OCO5)cc3CC(=O)N([C@@H](C)CO)C[C@H]2C)cc1
 : i, i, i, i
CSC(=O)OCC1=C[C@@H]2OC(=O)C3=CO[C@@H](O[C@@H]4O[C@H](CO)[C@@H](O)[C@H](O)[C@H]4O)[C@H]1[C@@H]32
 : i, i, i, i
Cc1noc(C)c1NC(=O)N(C)C[C@H]1Oc2ccc(NS(=O)(=O)c3cccs3)cc2CC(=O)N([C@@H](C)CO)C[C@H]1C
 : i, i, i, i
C/C=C1/[C@H](O[C@@H]2O[C@H](CO)[C@@H](O)[C@H](O)[C@H]2O)OC=C(C(=O)OC)[C@H]1CC(=O)OCCc1ccc(OC(=O)C[C@@H]2C(C(=O)OC)=CO[C@@H](O[C@@H]3O[C@H](CO)[C@@H](O)[C@H](O)[C@H]3O)/C2=C/C)cc1
 : i, i, ., i
COC(=O)c1ccccc1NC(=O)C1CC(c2ccccc2O)=NO1 (configuration not stated)
 : i, i, i, i
COC(=O)[C@@]1(Cc2ccccc2N=[N+]=[N-])N=C(c2ccc(OCCCO)cc2)O[C@H]1c1ccccc1CN=[N+]=[N-]
 : i, i, i, i
Cc1cc(C(=O)O)ccc1NC(=O)C1CC=CCC1C(=O)O (configuration not stated)
 : i, i, i, i
C[C@H](CO)N1C[C@H](C)[C@@H](CN(C)S(=O)(=O)c2ccccc2)Oc2ccc(NC(=O)CCC(F)(F)F)cc2CC1=O
 : i, i, i, i
CC1OC(OC(=O)C2=CC3CC(C)(C)CC34C(C)OC(=O)CC24)C(O)C(O)C1O (configuration not stated)
 : i, i, i, i
C=CCNC(=O)[C@@H]1[C@H]2C(=O)O[C@H](c3ccccc3)[C@H](c3ccccc3)N2[C@H](c2ccc(OCCO)cc2)[C@@]12C(=O)Nc1ccc(C#CCC(C(=O)OC)C(=O)OC)cc12
 : i, i, i, i
Cc1nn(Cc2cccc(Oc3ccccc3)c2)c(C)c1NC(=O)NC12CC3CC(CC(C3)C1)C2
 : i, i, i, i
COc1ccc(OC(C)c2nc(-c3ccccn3)no2)cc1 (configuration not stated)
 : i, i, i, i
CCn1c(SCC(=O)Nc2ccc3c(c2)OCCO3)nc2sc(C)c(C)c2c1=O
 : i, i, i, i
CCN(CC)CC(=O)Nc1sc2c(c1C(=O)Nc1ccccc1)CCC2
 : i, i, i, i
CC(C)(C)c1ccc(S(=O)(=O)/C=C/C#N)cc1
 : i, i, i, i
C=CCOC(=O)C1=C[C@H](c2ccc(Br)cc2)[C@@H](CCCO)[C@H](OCC)O1
 : i, i, ., i
C[C@@H]1CN([C@@H](C)CO)C(=O)c2cc(NC(=O)Nc3ccc4c(c3)OCO4)ccc2O[C@@H](C)CCCCO[C@@H]1CN(C)C(=O)c1ccccc1
 : i, i, i, i
Cc1noc(C)c1NC(=O)Nc1ccc2c(c1)C(=O)N([C@@H](C)CO)C[C@H](C)[C@H](CN(C)C)OCCCC[C@H](C)O2
 : i, i, i, i
C[C@@H]1CCCCO[C@H](CN(C)C)[C@H](C)CN([C@H](C)CO)C(=O)c2cc(NC(=O)Cc3ccccc3)ccc2O1
 : i, i, i, i
C[C@@H]1CN([C@@H](C)CO)C(=O)c2cc(NC(=O)C3CCCCC3)ccc2O[C@@H]1CN(C)C
 : i, i, i, i

# Entries of single compounds, quoted from the list:
# CSC(=O)OCC1=C[C@@H]2OC(=O)C3=CO[C@@H](O[C@@H]4O[C@H](CO)[C@@H](O)[C@H](O)[C@H]4O)[C@H]1[C@@H]32 across the screens: Myc binder: i; mut p53 SMM: i; ID4 binder: i; STAT3 SMM: i
# C=CCOC(=O)C1=C[C@H](c2ccc(Br)cc2)[C@@H](CCCO)[C@H](OCC)O1 across the screens: Myc binder: i; mut p53 SMM: i; ID4 binder: .; STAT3 SMM: i

# The list goes on:
# Values run as follows: Myc binder, mut p53 SMM, ID4 binder, STAT3 SMM
COc1ccc(CN2CCC(C)=CC2C)cc1 (configuration not stated)
 : i, i, i, i
COc1cc([C@@H](O)[C@@H](CO[C@@H]2O[C@H](CO)[C@@H](O)[C@H](O)[C@H]2O)Oc2ccc(/C=C/CO)cc2OC)ccc1O
 : i, i, ., i
Cc1cc(C)nc(SCC(=O)Nc2ccc(N3CCOCC3)cc2)n1
 : i, i, i, i
COc1ccc(CN(C)C[C@H]2Oc3ccc(NC(=O)c4ccncc4)cc3C(=O)N([C@@H](C)CO)C[C@@H]2C)cc1
 : i, i, i, i
C[C@@H]1CN([C@@H](C)CO)C(=O)c2cccc(NS(=O)(=O)c3ccc(F)cc3)c2O[C@@H]1CN(C)Cc1ccc(C(F)(F)F)cc1
 : i, i, i, i
C[C@H]1CN([C@@H](C)CO)C(=O)c2cccc(NS(C)(=O)=O)c2O[C@@H]1CN(C)Cc1ccc2c(c1)OCO2
 : i, i, i, i
C[C@@H]1CN([C@H](C)CO)C(=O)Cc2cc(NC(=O)Cc3cn(C)c4ccccc34)ccc2O[C@H]1CN(C)Cc1ccc(C(=O)O)cc1
 : i, i, i, i
CCO[C@H]1OC(C(=O)NC2CC2)=C[C@@H](c2coc3ccccc3c2=O)[C@@H]1CCCO
 : i, i, i, i
COc1ccc2nc(NCc3ccc(OC)c(OC)c3OC)sc2c1
 : i, i, i, i
C[C@@H]1CN([C@H](C)CO)C(=O)c2cc(NS(=O)(=O)c3cn(C)cn3)ccc2O[C@@H](C)CCCCO[C@H]1CN(C)C
 : i, i, i, i
C[C@H]1CN([C@@H](C)CO)C(=O)c2cccc(NC(=O)Nc3cccc4ccccc34)c2O[C@H]1CN(C)Cc1ccc2c(c1)OCO2
 : i, i, i, i
O=C(COc1ccc(Br)cc1CO)Nc1ccccc1
 : i, i, i, i
C[C@@H]1C=C(C(=O)NCc2ccccc2)O[C@H](OCc2ccc(CO)cc2)C1
 : i, i, i, i
C[C@@H]1CN([C@@H](C)CO)C(=O)Cc2cc(NC(=O)Cc3ccccc3)ccc2O[C@H]1CN(C)C(=O)Nc1ccc2c(c1)OCO2
 : i, i, i, i
C[C@H]1CN([C@@H](C)CO)C(=O)c2cc(NS(=O)(=O)c3cn(C)cn3)ccc2O[C@H]1CN(C)Cc1ccccc1
 : i, i, i, i
O=C(O)CSc1nc2ccccc2n1CC(=O)O
 : i, i, i, i
C[C@@H]1CN([C@H](C)CO)C(=O)c2cc(N(C)C)ccc2O[C@@H](C)CCCCO[C@@H]1CN(C)Cc1ccncc1
 : i, i, i, i
O=C(O)c1ccccc1NS(=O)(=O)c1cccc(C(=O)N2CCCc3ccccc32)c1
 : i, i, i, i
C[C@H](CO)N1C[C@H](C)[C@H](CN(C)Cc2ccncc2)Oc2c(NC(=O)Nc3cccc4ccccc34)cccc2C1=O
 : i, i, i, i

# Source: PubChem
